Bioassay records deposited in PubChem by National Center for Advancing Translational Sciences (NCATS).
D2 potentiator – potentiates the human D2 dopamine receptor allosterically | P14416 | DiscoveRx D2 beta-arrestin cells, luminescence, 90 min; 100% = 57 uM dopamine signal | potentiation, % (concentration not given with the values) | actives 0.23% (n = 360,000); active = potentiation of 50% or more; inconclusive = 30% to 50%; inactive = 30% or less;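 also: compound concentration not given in the record; tested on top of an EC20 dose of dopamine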
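PathHunter beta-arrestin assay in DiscoveRx D2 cells. Compounds were added with an EC20 of dopamine (50 nM final) for 90 min at 37 deg C. Luminescence was read 1 h after detection reagent, with 57 uM dopamine as the EC100 control.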
gsp antag – antagonists of gsp mutant (McCune-Albright syndrome). AID 624288. actives 0.4% (n = 340,000). Potency, µM (doses to about 76.9 µM), for inactives: top-dose activity change, negative = inhibition, most hits filed as inhibitors. gsp-mutant cells, cAMP HTRF, 30 min; control for the full effect not named in the record; active = falling curve of any shape with a large fitted effect; inconclusive = falling curve, mostly with a smaller effect; inactive = flat or rising curve; cell line not stated here;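 also: intracellular cAMP measured with PDE inhibitor Ro 20-1724 present during compound exposure; potency is read from the fitted curve at half-maximal effect; % is scaled to controls: 0 for no effect and ±100 for the full control effect; nearly all actives have a fitted effect of over 65% in size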
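Cells, 2000/well, grown 16–24 h in DMEM 10% FBS with 0.5 mg/ml G418, then compounds plus […] (300 uM addition stock), 30 min at 37C. cAMP read by HTRF (cAMP-d2 and anti-cAMP antibody-K in lysis buffer) after 30 min RT.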
Sfp inh – blocks B. subtilis Sfp PPTase activity | Potency, µM, without a hit: max response, negative = inhibition, hits mostly inhibitors | Biochemical Sfp PPTase activity, qHTS | actives 3.5% (n = 310,000) | Q9F4F7 | AID 1490; active = well fitted inhibition curve with a large enough effect; inconclusive = small, poorly fitted or top-dose-only effect, or another doubt; inactive = no such curve, though single readings can be large or run the other way;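 also: the enzyme is Sfp with the accession as filed and its product quenches rhodamine fluorescence; potency is read from the fitted curve at half-maximal effect; 0% = enzyme reaction without inhibitor and -100% = no enzyme wells; top concentration of the series not given in the record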
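Reaction rates are the 30-min fluorescence difference (ex 525, em 598 nm) in wells containing 15 nM Sfp, 5 uM rhodamine-CoA and 12.5 uM BHQ-2-YbbR at pH 7.6 with 10 mM MgCl2.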
ClpP mod – qHTS Assay for Activators of ClpP; actives 1.9% (n = 340,000); Potency, µM (series often up to 57.5 µM), inactives show at the top dose activity change, negative = active; purified B. subtilis ClpP, FRET peptide cleavage, 20 min; active = well fitted falling curve with a large enough effect; inconclusive = small, poorly fitted or top-dose-only effect; inactive = no such curve, though single readings can be large or run the other way; also: potency is read from the fitted curve at half-maximal effect; the source files actives as falling curves though it sought activators and does not explain the sign; nearly all actives have a fitted effect of over 65% in size; many hits overshoot -100%
Target sequence (P80244 whole entry, looked up): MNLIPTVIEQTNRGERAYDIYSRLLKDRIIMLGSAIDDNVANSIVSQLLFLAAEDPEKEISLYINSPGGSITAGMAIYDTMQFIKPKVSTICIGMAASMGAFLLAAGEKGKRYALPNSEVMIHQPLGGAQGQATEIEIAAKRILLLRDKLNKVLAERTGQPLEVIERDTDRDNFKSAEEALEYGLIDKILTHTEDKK
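Purified B. subtilis ClpP, 10 microg/mL final in Tris/HCl pH8 with KCl, BSA, glycerol and Tween-20, cleaved an Abz/nitrotyrosine-quenched decapeptide. Fluorescence (ex 320, em 430) was read at 0 and 20 min at room temperature. Delta was normalized to 5.8 microM ADEP and DMSO/no-enzyme controls.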
Menin MLL FP FL – menin-MLL binding inhibition, fluorescein peptide | Fluorescence polarization, fluorescein-MLL peptide displacement from menin | FP activity change, % at 61.4 µM | 290,000 tested, under 10 active | AID 1766; inconclusive = falling polarisation curve, or a change in total fluorescence; inactive = total fluorescence flat and polarisation flat or rising; no compound was filed as active; the % refers to the polarisation; negative = inhibition;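 also: % of control where 0% means no effect; inhibitors lower the polarisation; unlabelled MLL peptide was the positive control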
gsp ag – activates gsp, the McCune-Albright syndrome mutation | actives 0.13% (n = 340,000) | Potency, µM (series often up to 76.9 µM), without a hit: at the highest dose activation (cAMP increase), hits mostly activators | gsp mutant cells, cAMP HTRF, 30 min; control for the full effect not named in the record; active = well fitted activation curve with a large enough effect; inconclusive = small, poorly fitted or top-dose-only effect, or another doubt; inactive = no such curve, though single readings can be large or run the other way; cell line not stated here;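 also: phosphodiesterase inhibitor Ro 20-1724 added with compounds to block cAMP breakdown; potency is read from the fitted curve at half-maximal effect; nearly all actives have a fitted effect of over 60% in size; about a fifth of the inactives were tested at one dose only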
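Cells in DMEM/10% FBS with G418 were pretreated with compounds in DMSO plus […] (300 uM stock) for 30 min at 37C. cAMP was measured by HTRF (cAMP-d2 plus anti-cAMP antibody-K) after 30 min at room temperature.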
TRPV1 potentiator – potentiators of human vanilloid receptor 1 (TRPV1); TRPV1-expressing cells, Fluo-8 calcium influx, capsaicin EC20 potentiation; host cell line not named in the record; control for the full effect not named in the record; potentiation, % at 8.33 µM; actives 0.02% (n = 320,000); AID 540277; active means potentiation above 80%; inconclusive means 30% to 80%; inactive means below 30%; also: 0% is about no effect
Target sequence (Q8NER1 whole entry, looked up): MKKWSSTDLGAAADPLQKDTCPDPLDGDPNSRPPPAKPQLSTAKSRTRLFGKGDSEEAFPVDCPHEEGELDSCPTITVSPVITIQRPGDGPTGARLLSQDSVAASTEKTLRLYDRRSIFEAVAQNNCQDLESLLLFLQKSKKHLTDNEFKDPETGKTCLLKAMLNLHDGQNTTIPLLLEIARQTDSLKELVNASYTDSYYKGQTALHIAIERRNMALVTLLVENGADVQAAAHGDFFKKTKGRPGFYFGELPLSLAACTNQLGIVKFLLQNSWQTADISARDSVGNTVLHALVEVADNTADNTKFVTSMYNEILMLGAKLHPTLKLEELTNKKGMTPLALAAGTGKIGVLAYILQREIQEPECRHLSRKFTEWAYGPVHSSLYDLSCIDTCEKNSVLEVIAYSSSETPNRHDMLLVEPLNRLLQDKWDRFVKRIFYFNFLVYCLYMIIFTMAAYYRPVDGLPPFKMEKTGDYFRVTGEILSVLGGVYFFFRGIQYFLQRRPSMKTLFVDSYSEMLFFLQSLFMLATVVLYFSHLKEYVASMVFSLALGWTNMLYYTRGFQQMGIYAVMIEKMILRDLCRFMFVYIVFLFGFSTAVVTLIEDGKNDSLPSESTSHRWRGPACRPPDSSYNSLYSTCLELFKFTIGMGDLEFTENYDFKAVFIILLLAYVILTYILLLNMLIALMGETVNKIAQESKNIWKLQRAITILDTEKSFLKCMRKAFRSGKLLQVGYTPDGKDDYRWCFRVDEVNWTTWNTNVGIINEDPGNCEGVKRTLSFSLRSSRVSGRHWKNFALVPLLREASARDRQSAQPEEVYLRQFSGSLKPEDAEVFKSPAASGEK
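TRPV1-expressing cells were cultured overnight at 35.5C and loaded with Fluo-8 calcium dye for 40 to 90 min at room temperature. After a 10 s baseline, compound was added and calcium influx was read kinetically for 3 min (ex 480/em 520 nm).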
* marks the source's active call; other numbers are inactive results; ? = inconclusive; . = no result given; [ ] = remark or other dose.

Results follow in this order: D2 potentiator	gsp antag	Sfp inh	ClpP mod	Menin MLL FP FL	gsp ag	TRPV1 potentiator
(1) CCC(CC)c1nnc(NC(=O)c2ccc3ccccc3n2)s1
    -7	-21%	10%	-7.0%	5.6	3%	-20
(2) C[N+]1(C)CC2=Cc3ccccc3CC2C1 (stereo not given)
    -3	13%	-2%	.	-1.3	-50%[inhibitor]	-1
(3) CN1CCN(c2ccc(S(=O)(=O)Nc3ccccc3)cc2[N+](=O)[O-])CC1
    -29	5%	4%	-1.4%	3.6	-1%	0
(4) COc1cc(C(=O)OCC(=O)NC(C)CCc2ccccc2)cc(OC)c1OC (stereo not given)
    5	1%	25%	.	5.4	-7%	-3
(5) CCOC(=O)CN1C(=O)/C(=C/c2ccccc2Br)Oc2ccccc21
    -9	-7%	0%	3.6%	-5.0	-2%	-13
(6) Cn1c(=O)[nH]c(Nc2ccc(F)cc2)c([N+](=O)[O-])c1=O
    -16	1%	24%	45%	1.6	-7%	2
(7) COc1cc(S(=O)(=O)Nc2cccc3cn[nH]c23)c(OC)cc1Cl
    -2	-8%	8%	-1.3%	.	1%	4
(8) COc1cccc(OC)c1OCCCOc1ccc([N+](=O)[O-])cc1Cl
    -9	?	0%	18%	6.6	-29%	-3
(9) CCOc1nc2cnccc2n(CC(=O)Nc2c(F)c(F)cc(F)c2F)c1=O
    -4	-14%	17%	-1.6%	.	21%	3
(10) CC(=O)N[C@H]1[C@H](OC2CCCCC2)O[C@H](COC(C)=O)[C@@H](OC(C)=O)[C@@H]1OC(C)=O
    -5	4%	6%	-0.1%	-2.3	4%	5
(11) COc1cc2nc(C3CCC3)n(N)c(=O)c2cc1OC
    0	-16%	22%	1.0%	3.9	18%	19
(12) COc1cc(NC(=O)CSc2nnc3c(C)cc4cc(C)cc(C)c4n23)c(C(=O)O)cc1OC
    1	-4%	-18%	.	-2.7	15%[15.4 µM]	15
(13) O=C(CCNC(=O)c1ccccc1)OCC(=O)c1ccccc1
    -6	-3%	-3%	0.2%	2.3	-51%[inhibitor]	-6
(14) COc1ccccc1OCCCn1c(=O)oc2ccc(C)cc21
    1	-7%	11%	-2.6%	4.5	22%	-10
(15) CC1CCCN(C(=O)COC(=O)c2cc(-c3cccs3)nn2-c2ccccc2)C1 (stereo not given)
    -10	-15%	.	-9.0%	.	-7%	-4
(16) COc1ccc(OC)c(C2C(C(C)=O)=C(O)C(=O)N2CCc2ccc(OC)c(OC)c2)c1 (stereo not given)
    ?	-10%	-14%	-1.2%	1.9	5%	-2
(17) CC(OC(=O)c1cccnc1Cl)C(=O)NC1CCCCC1 (stereo not given)
    -12	.	.	-0.6%	.	-7%	.
(18) COc1cccc(CN(C)C(=O)c2cc(COc3ccc4ncccc4c3)on2)c1
    2	35µM*	0%	.	-5.1	-6%[15.4 µM]	-12
(19) NC(=O)c1ccc(NC(=O)CN2CCN(c3ccc(Cl)cc3)CC2)cc1
    -2	-6%	26%	5.1%	-3.7	27%	6
(20) O=C(O)C1CC=CCC1C(=O)NCCCN1CCCC1=O (stereo not given)
    -1	10%	18%	-2.0%	1.2	9%	8
(21) C=CCn1c(N)cc(=O)nc1SCC(=O)NC(C)c1ccccc1 (stereo not given)
    -4	-2%	-3%	-0.2%	3.2	-4%	8
(22) CCOc1cc(/C=C2\N=C3CCCCCN3C2=O)ccc1O
    -7	-24%	8%	2.5%	?	-27%	5
(23) COC(=O)CSc1nnc2n(-c3ccc(OC)cc3)c(=O)c3c4c(sc3n12)CCCCC4
    -4	-8%	-9%	-0.4%	2.3	-22%	-13
(24) CCOCCc1nnc(NC(=O)CCS(=O)(=O)c2ccccc2)s1
    1	7%	6%	.	-0.8	25%	-3
(25) COc1ccc(N2CCN(C(=O)CN3C(=O)NC4(CCCc5ccccc54)C3=O)CC2)cc1 (stereo not given)
    4	-12%	.	.	.	7%[15.4 µM]	-6
(26) Nc1nc(Nc2ccccc2)nc(NC2CCCCC2)c1[N+](=O)[O-]
    -24	-8%	1%	-2.0%	1.6	-26%	0
(27) c1ccc2[nH]c(CCCc3nc4ccccc4[nH]3)nc2c1
    -36	0%	16%	1.7%	-1.3	-3%[15.4 µM]	-3
(28) CCOc1ncccc1C(=O)Nc1ccc2c(c1)OCCCO2
    -10	0%	.	-2.0%	.	-4%	-10
(29) COc1cccc2c1C(CCCC(=O)O)CCC2 (stereo not given)
    0	-8%	.	.	.	5%	.
(30) CC(Cl)c1cc(-c2ncc(C(F)(F)F)cc2Cl)no1 (stereo not given)
    0	2%	10%	.	-7.3	7%	5
(31) CCOc1ccccc1NC(=O)CCNC(=O)c1ccco1
    -7	11%	6%	.	-0.7	-1%[15.4 µM]	10
(32) Cn1cc(Br)c(C(=O)NC(=S)N2CCN(c3ccccn3)CC2)n1
    1	13%	?	0.4%	1.2	-1%[15.4 µM]	16
(33) CC(C)NC(=O)c1ccc(-c2cc(C(F)(F)F)ccc2Cl)o1
    -4	7%	18%	-1.7%	-0.1	27%	-14
(34) Cc1ccc(Cn2nnc(C(=O)Nc3cc(C)ccc3C)c2N)cc1
    1	10%	14%	-0.4%	-4.6	?	-9
(35) Cc1ccc(S(=O)(=O)N(OCc2ccccc2)C(C)C(=O)O)cc1 (stereo not given)
    -1	-8%	.	.	.	-1%[15.4 µM]	.
(36) CN(C(=O)CSc1ncnc2ccccc12)C1CCCCC1
    -21	2%	.	-3.5%	.	3%[15.4 µM]	16
(37) O=C(Nc1ccc2c(c1)OCO2)c1ccc(Br)o1
    -11	2%	-9%	0.7%	3.1	7%	-5
(38) COc1ccc(-c2noc(CCCC(=O)N3CCN(c4cc(C)ccc4C)CC3)n2)cc1
    -1	?	.	0.9%	.	.	.
(39) COc1ccc(NC(=O)c2ccc(S(=O)(=O)N3CC(C)CC(C)C3)cc2)cc1S(N)(=O)=O (stereo not given)
    17	12%	.	3.7%	.	?	-3
(40) COc1ccc(N=C2C(=Nc3ccc(OC)cc3)N(c3ccc(OC)cc3)C(=S)N2C)cc1
    -20	-12%	10%	-1.5%	-3.5	-6%	-21
(41) CCN(CC)CCNc1nc2nonc2nc1NCCN(CC)CC
    -14	-4%	8%	-2.7%	-6.8	7%	6
(42) CC(=O)N1C(=O)C2(C(C#N)=C(N)Oc3cc(C)oc(=O)c32)c2ccccc21 (stereo not given)
    -8	4%	4%	-2.3%	4.2	-2%	5
(43) Cc1cc(=O)oc(C)c1C(=O)OCC(=O)c1ccc2ccccc2c1
    6	?	?	-12%	?	-15%	-2
(44) COc1cccc(CC(NC(C)=O)C(=O)NC2CCN(c3nc(C)cc(C)c3C#N)CC2)c1 (stereo not given)
    27	-25%	11%	?	0.8	-4%	?
(45) COc1ccc2c(c1)c(C(=O)CN1CCOCC1)c(C)n2C
    -1	-15%	2%	-2.1%	-1.3	13%	-2
(46) Cc1ccc(S(=O)(=O)NCCNC(=O)c2nonc2N)cc1
    -13	14%	9%	0.6%	-1.3	?	3
(47) CC(=O)Oc1ccc(-c2cccc(C(=O)Oc3ccccc3)c2)cc1
    6	-9%	?	-6.4%	1.1	-16%	-25
(48) CC(=O)NCC(=O)N1CCC(n2nccc2NC(=O)CCCc2ccccc2)CC1
    -1	11%	13%	0.3%	.	19%[15.4 µM]	-5
(49) Cc1nnc2n(c1=O)C(CS(=O)(=O)c1ccccc1)CS2 (stereo not given)
    -2	15%	10%	-0.2%	5.1	-52%[inhibitor]	0
(50) CCOC(=O)c1c(C)[nH]c(C(=O)COC(=O)c2oc3ccc(OC)cc3c2C)c1C
    -5	2%	5%	-13%	1.6	-6%	-5
(51) N#Cc1cccc(C(=O)OCC(=O)N2CCCc3ccccc32)c1
    -2	8%	.	.	.	-12%[15.4 µM]	-10
(52) CCN(CC)S(=O)(=O)c1ccc(C(=O)Nc2c3c(nn2C(C)(C)C)CS(=O)(=O)C3)cc1
    -8	6%	1%	-0.3%	0.8	-1%	1
(53) Fc1ccc(OCc2nc3ccccc3s2)cc1
    -6	2%	5%	.	-0.1	2%[15.4 µM]	0
(54) COC(=O)c1ccc(Oc2nc(Nc3ccccc3)nc(N(C)C)n2)cc1
    2	-20%	-12%	-2.7%	0.6	-4%	-9
(55) O=C1CC(NNc2nc3ccccc3s2)C(=O)N1c1ccc(F)cc1 (stereo not given)
    2	-1%	18%	.	2.0	2%	6
(56) Cc1ccc(-n2nc3c(=O)n(CCCC(=O)NCCN4CCN(C)CC4)nc(C)c3c2C)cc1
    -10	-15%	9%	-15%	.	13%	-1
(57) O=C(CN1CCCCCC1=O)OCc1ncc(-c2ccccc2)o1
    5	6%	17%	-1.5%	0.2	-19%	-25
(58) Cc1ccc(C)c(OCC(=O)NNC(=O)c2ccc(=O)[nH]c2)c1
    -4	2%	.	-0.7%	.	-5%	-4
(59) CC(C)(C)c1ccc(C(=O)N2CCC(C(=O)NCc3ccco3)CC2)cc1
    15	5%	-15%	?	2.1	3%	2
(60) N#C/C(=C(/O)COC(=O)c1ccc(O)cc1)c1nc2ccccc2[nH]1
    -3	-14%	-15%	-2.0%	?	7%	5

(further entries)
Results follow in this order: D2 potentiator	gsp antag	Sfp inh	ClpP mod	Menin MLL FP FL	gsp ag	TRPV1 potentiator
(61) CN(CC1CCCO1)S(=O)(=O)c1ccc(C(=O)Nc2nnc(-c3ccccc3)o2)cc1 (stereo not given)
    -6	-17%	13%	-0.1%	.	12%	-3
(62) CN(C)S(=O)(=O)c1ccc(C(=O)Nc2ccn(C)n2)cc1
    -4	7%	9%	.	-1.6	16%[15.4 µM]	-2
(63) O=C1N=C(N2CCOCC2)S/C1=C\c1ccc(OS(=O)(=O)c2ccccc2)cc1
    3	-21%	-3%	-1.8%	-3.8	-72%[inhibitor]	0
(64) O=S(=O)(c1ccccc1)c1nc(-c2ccc(Cl)cc2)oc1NCCCN1CCOCC1
    -15	-12%	.	-0.8%	.	5%[15.4 µM]	2
(65) COC(=O)/C(=N/Nc1ccc(C)cc1)N1CCCc2ccccc21
    -10	-12%	-15%	-2.3%	3.2	24%	-5
(66) COc1cccc(CNS(=O)(=O)c2cc3c4c(c2)CCC(=O)N4CCC3)c1
    4	2%	.	.	.	-10%[15.4 µM]	4
